PK Bst: Pyruvate Kinase; 1.2% of 51,000 active; Potency, µM; partly purified Bacillus stearothermophilus pyruvate kinase, luminescence ATP production; ribose 5-phosphate activator present at AC10; in the data active means potency below about 11 µM; inconclusive means mostly about 12 µM to 25 µM; inactive means weaker than that;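 the screen sought inhibitors and activators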;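 note: potency is the fitted concentration of half-maximal effect; scaled between full activation by ribose 5 phosphate and full inhibition by luteolin; about four in five hits inhibit and the cells do not say which; series up to 57 µM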
YjeE inh: qHTS Assay for Inhibitors of YjeE; tRNA threonylcarbamoyladenosine biosynthesis protein TsaE (Escherichia coli (strain …; purified YjeE, fluorescence polarisation of a bound ADP probe; Potency, µM; 0.05% of 71,000 active; active = well fitted falling curve; inconclusive = weaker or top-dose-only fall, or a rising curve; inactive = flat or poorly fitted curve;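 note: top concentration of the series not given in the record; excess ADP was the control for the full effect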
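Purified YjeE (10 uM) with BODIPY Texas Red-labeled ADP probe (2 uM); compounds pin-transferred, 15 min at room temperature. Binding inhibition read as decreased fluorescence polarization; ADP titration as control.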
* hit, by the source's call; i = inactive; ? = inconclusive; · = no result given. This is a subset (hit frequency here may not be typical).

SMILES	PK Bst	YjeE inh
Oc1[nH]c2ccccc2c1C1=NCCCC1	i	i
COc1cc(C(=O)N2c3ccccc3CC2C)cc(OC)c1OC (configuration not stated)	·	i
CCOC(=O)C1=C(C)N=C2SCCC(=O)N2C1c1cccs1 (configuration not stated)	>57	i
Clc1ccccc1/C=C\c1ccnc2ccccc12	·	i
Cc1ncsc1C(=O)NCc1ccc(N2CCCC2=O)cc1	>57	i
O=C(NCc1cccnc1)C1c2ccccc2C(=O)N1C1CCCC1 (configuration not stated)	·	i
CCOc1ccc(NC(=O)CSc2nnc(Cc3cccn3C)n2-c2ccc(OC)cc2)cc1	>57	i
Clc1ccccc1-c1nnc2sc(-c3cccs3)nn12	i	i
O=C1CCCc2c1[nH]c1ccccc21	>57	i
NC(=O)CN(c1ccc(Cl)cc1)S(=O)(=O)c1ccccc1	>57	i
Cc1ccc(S(=O)(=O)N(C)Cc2ccc(-c3nnc4n3CCC4)cc2)cc1	·	i
COC(=O)c1[nH]c2ccccc2c1NC(=O)CN1CCN(Cc2ccc3c(c2)OCO3)CC1	>57	i
Cc1nc2scc(-c3ccccc3)c2c(=O)n1/N=C/c1ccco1	>57	i
O=C(O)/C(=C/c1c(C(=O)O)[nH]c2cc(Cl)cc(Cl)c12)c1ccccc1	·	i
CCOc1ccccc1CNc1nc2nc3c(c(=O)n2[nH]1)CCC3	>57	i
Cc1nn(-c2ccccc2)c(Cl)c1C(=O)NCC(=O)O	>57	i
O=C(Cc1ccccc1)Nc1nc2ccc(Cl)cc2c2nc(-c3ccco3)nn12	·	i
O=C1CC(c2ccc(S(=O)(=O)NCCOc3ccccc3)cc2)CN1 (configuration not stated)	>57	i
Nc1c(NCc2ccccc2F)c(=O)[nH]c(=O)n1Cc1ccccc1	>57	i
CC(C)(C)c1[nH]nc2c1C(c1ccncc1)C(C#N)=C(N)O2 (configuration not stated)	>57	i
Cn1c(SCC(=O)Nc2cccc3ccccc23)nc(O)cc1=O	>57	i
CCN1C(=O)/C(=C/N(C)C)c2ccccc21	>57	i
CCOC(=O)Cn1c(=O)sc2ccccc21	·	i
Cn1c(/N=C/c2c(O)ccc3ccccc23)nc2ccccc21	·	i
COc1ccccc1-n1c(SCC(=O)NC2CCCC2)nc2cccnc21	>57	i

(continued)
SMILES	PK Bst	YjeE inh
Cc1nc2ccccc2c(=O)n1CCCn1ccnc1	>57	i
COc1ccc(COC(=O)c2n[nH]c3ccccc23)cc1F	>57	i
CC1(C)CC(=O)c2cc(C(=O)NCc3ccco3)c(=O)n(-c3ccc(Cl)cc3)c2C1	>57	i
CCOC(=O)Cn1c(=O)c2c(nc(Br)n2Cc2ccccc2)n(C)c1=O	>57	i
N#Cc1ccc(CSc2nnc(-c3ccccn3)n2-c2ccccc2)cc1	>11	i
CCC1CCCCN1C(=O)CSc1nnc(CNC(=O)c2ccco2)o1 (configuration not stated)	>57	i
CCn1c(=O)cc(OCC(=O)N2CCCC2)c2ccccc21	·	i
CCN(C(=O)Cc1c(C(=O)O)[nH]c2ccccc12)c1cc(OC)ccc1OC	>57	i
CN(CCO)CC(O)Cn1cnc2c1c(=O)n(C)c(=O)n2C (configuration not stated) (tested in a mixture with another compound)	>26	·
Clc1ccc(COn2nnc3ccccc32)c(Cl)c1	·	i
C/C(O)=C\c1nc(=O)c2c(C)cc(C)nc2n1-c1ccccc1	>57	i
C=CCn1c(COc2ccccc2)nnc1SCC(=O)Nc1ccc(S(N)(=O)=O)cc1	>57	i
O=C(CSc1nnc(NCc2ccccc2)s1)c1ccco1	·	i
O=C(Nc1ccc(N2CCCC2)cc1)c1cccc(F)c1	?	i
Cc1ccc2cc(CCNC(=O)CC(C)C)c(=O)[nH]c2c1	·	i
COc1ccc2nc(SCC(=O)N3CCCCCC3)c(C#N)cc2c1	·	i
O=C(CN1CCN(c2ccccn2)CC1)Nc1ccc(Cl)c(C(F)(F)F)c1	>57	i
COc1ccc(N(Cc2cc3cc(OC)ccc3[nH]c2=O)C(=O)c2cccnc2)cc1	·	i
COc1cccc(C(=O)NCc2nnc(SCC(=O)Nc3nccs3)n2-c2cccc(C)c2)c1	>57	i
CCOC(=O)c1ccc(N2C(=O)c3n[nH]c(C)c3C2c2cccnc2)cc1 (configuration not stated)	>57	i
Cc1cc2ccccc2c(=O)n1CC(=O)NCC(=O)N1CCCC1	>57	i
Cc1cc(=O)[nH]c(SCn2nnc3ccccc3c2=O)n1	>57	i
COc1ccc(-c2nnc(SCC(=O)N3CCCC3)o2)cc1OC	>57	i
CCS(=O)(=O)N1CCC(C(=O)N2CCOCC2)CC1	>57	i
CCCn1c2c(c(O)c(C(=O)Nc3ncccc3C)c1=O)CCCC2	>57	i

The list goes on:
SMILES	PK Bst	YjeE inh
CCOC(=O)c1cc2n(c1C)-c1ccccc1C2=O	·	i
Oc1ccc(C=Nc2cccc3ncccc23)c(O)c1	>11	i
O=c1cccc(-c2ccccc2)[nH]1	>57	i
CCCC1(C(=O)OCC)NC(c2ccc(N(C)C)cc2)C2C(=O)N(c3ccc(OCC)cc3)C(=O)C21 (configuration not stated)	>57	i
CC1=C(C(=O)OCc2ccccc2)C(c2cccc([N+](=O)[O-])c2)NC(=O)N1CCCCCC(=O)O (configuration not stated)	·	i
O=C(OCc1nnc(-c2ccccc2)o1)C1CCN(S(=O)(=O)c2cccs2)CC1	>57	i
CN(C)CCO[C@@H](c1ccc(Cl)cc1)c1ccccn1	·	i
O=C(NC1CCCCCC1)c1cccc(N2CCCC2=O)c1	>57	i
Cc1oncc1C(=S)Nc1ccccc1	·	i
Cc1nc(NC(=O)C2CC2)sc1C(=O)N1CCCCC1	>57	i
Oc1c(C(O)(c2ccccc2)c2ccc3ccccc3c2O)ccc2ccccc12	·	i
CCCn1c(SCC(=O)N2c3ccccc3Sc3ccccc32)nc2c1c(=O)n(C)c(=O)n2C	>57	i
COc1ccc(OC)c(C(c2nnnn2C2CCCC2)N2CCc3ccccc3C2)c1 (configuration not stated)	>57	i
COC(=O)c1ccc(CSc2nnnn2-c2ccc(C)cc2C)o1	i	i
COC(=O)C1=C(C)N(c2ccc(F)c(Cl)c2)C(=O)C1	>57	i
Nc1cc(N)nc(SCc2cc(=O)oc3cc4c(cc23)CCC4)n1	>57	i
CCOc1cc(C2C(C(=O)c3ccc(C)cc3)=C(C(=O)OC)Nc3nnnn32)ccc1O (configuration not stated)	>57	i
CN1C(=O)NC2C1N(S(C)(=O)=O)CCN2S(C)(=O)=O (configuration not stated)	·	i
Cc1c(C(=O)OCc2cc(=O)n3cc(Br)ccc3n2)oc2ccccc12	>57	i
Cc1ccc(C)c(C(=O)NCc2ccncc2)c1	>57	i
COc1cc(C(=O)N2CCN(c3ccc(C)cc3C)CC2)cc(OC)c1OC	·	i
c1nc(N2CCOCC2)c2c3c(sc2n1)CCCC3	·	i
O=C(NCc1ccc(Cl)cc1)c1ccc(COCC(F)(F)F)o1	>57	i
COc1cccc(C2/C(=C(/O)c3ccc(F)cc3)C(=O)C(=O)N2CCN(C)C)c1 (configuration not stated)	·	i
COc1cccc(-c2nn3c(-c4cc(C)[nH]n4)nnc3s2)c1	i	i

New compounds follow
SMILES	PK Bst	YjeE inh
CC1=Nc2ccc(C)cc2N(Cc2ccccc2)C(=O)C1	·	i
COC(=O)CN(c1ccc(F)cc1)S(=O)(=O)c1ccccc1	>57	i
CCN(CC)CCN=CC1=C(O)CNC1=O	>57	i
N#CCCn1nc(-c2ccccc2)cc1Nc1ccccc1NC(=O)c1cccs1	>57	i
Cc1ccc(-c2noc(C3CCCN(C(=O)C4CCCCC4)C3)n2)o1 (configuration not stated)	>57	i
CCOC(=O)C1Cc2ccccc2C(=O)O1 (configuration not stated)	·	i
COc1ccc(NC(=O)C2CCCN2S(=O)(=O)c2cccc3cccnc23)c(OC)c1 (configuration not stated)	·	i
Cc1cc2c(ccc3c2no[n+]3[O-])nn1	>57	i
Cc1cccc(CCNS(=O)(=O)c2ccc3c(c2)oc(=O)n3C)c1	>57	i
CN1C(=O)/C(=C2/C=Cc3ccccc3N2CCCS(=O)(=O)O)SC1=S	i	i
CC(C)(C)c1nc(NCCN2CCOCC2)c2nnn(Cc3ccccc3Cl)c2n1	>57	i
CCN1C(c2ccc(F)cc2)=CS/C1=C(\C#N)c1nnc2n1-c1ccccc1SC2	>57	i
O=C(Cc1cccs1)Nc1nncs1	>57	i
CCCn1c(SCC(=O)NCCc2ccc(OC)c(OC)c2)nc2c1c(=O)n(C)c(=O)n2C	>57	i
O=C(c1nn2cccnc2c1Cl)N1CCN(c2ccccc2)CC1	>57	i
CN(C)CCCN(C(=O)c1cccs1)c1nc(-c2ccccc2)cs1	·	i
O=[n+]1c2c(n([O-])c3c1CCCC3)CCCCC2	·	i
O=C(NCc1nc2ccccc2[nH]1)c1ccco1	>57	i
O=C(OCC#CCSc1nnc(-c2ccccc2)o1)c1ccco1	>57	i
COC(=O)c1[nH]c2ccc(C)cc2c1NC(=O)CN1CCN(C(=O)c2ccccc2)CC1	>57	i
Nn1c(Cc2cccc3ccccc23)nnc1SC1CCOC1=O (configuration not stated)	>57	i
O=c1c(-c2cccc(Cl)c2)nc2cncnc2n1Cc1ccc(F)cc1	·	i
COc1cccc(-n2nnc3c(=O)n(Cc4cccc(F)c4)cnc32)c1	>57	i
CC(C)c1nc2oc3c(N4CCN(C)CC4)ncnc3c2c2c1CCC2	>57	i
CCn1c(NC2CCCCC2)nc2ccccc21	>57	i

17 entries from above, sorted by SMILES length, rising:
SMILES	PK Bst	YjeE inh
O=C(Cc1cccs1)Nc1nncs1	>57	i
CCN(CC)CCN=CC1=C(O)CNC1=O	>57	i
CCn1c(NC2CCCCC2)nc2ccccc21	>57	i
O=C(NCc1nc2ccccc2[nH]1)c1ccco1	>57	i
O=[n+]1c2c(n([O-])c3c1CCCC3)CCCCC2	·	i
CC1=Nc2ccc(C)cc2N(Cc2ccccc2)C(=O)C1	·	i
O=C(OCC#CCSc1nnc(-c2ccccc2)o1)c1ccco1	>57	i
O=C(c1nn2cccnc2c1Cl)N1CCN(c2ccccc2)CC1	>57	i
COC(=O)CN(c1ccc(F)cc1)S(=O)(=O)c1ccccc1	>57	i
CN(C)CCCN(C(=O)c1cccs1)c1nc(-c2ccccc2)cs1	·	i
CC(C)c1nc2oc3c(N4CCN(C)CC4)ncnc3c2c2c1CCC2	>57	i
O=c1c(-c2cccc(Cl)c2)nc2cncnc2n1Cc1ccc(F)cc1	·	i
COc1cccc(-n2nnc3c(=O)n(Cc4cccc(F)c4)cnc32)c1	>57	i
N#CCCn1nc(-c2ccccc2)cc1Nc1ccccc1NC(=O)c1cccs1	>57	i
CN1C(=O)/C(=C2/C=Cc3ccccc3N2CCCS(=O)(=O)O)SC1=S	i	i
COc1ccc(NC(=O)C2CCCN2S(=O)(=O)c2cccc3cccnc23)c(OC)c1 (configuration not stated)	·	i
CCCn1c(SCC(=O)NCCc2ccc(OC)c(OC)c2)nc2c1c(=O)n(C)c(=O)n2C	>57	i

More records
SMILES	PK Bst	YjeE inh
O=C(CN1CCOCC1)Nc1cccc(Br)c1	>57	i
O=C(CSC1=NCCN1)C1COc2ccccc2O1 (configuration not stated)	·	i
O=c1c2[nH]c3cccc(Cl)c3c2ncn1CCN1CCCCC1	·	i
COc1ccc(C(CC(=O)NCCCN2CCOCC2)NS(=O)(=O)c2ccc(C)cc2)cc1 (configuration not stated)	>57	i
c1ccc(Cc2nnc3sc(C4COc5ccccc5O4)nn23)cc1 (configuration not stated)	>57	i
CCOC(=O)c1cccc(NC(=O)Cn2cc3c(n2)CCC(C)C3)c1 (configuration not stated)	·	i
C/C(O)=C(\C#N)c1nnc2n1CCCCC2	>57	i
Cc1c(C(N)=O)sc(N)c1C(=O)OC(C)C	·	i
COCC(C)n1c(SCC(=O)N2CCCCC2)nc2ccccc2c1=O (configuration not stated)	>57	i
CCCn1c(SCC(=O)c2cc(OC)ccc2OC)nnc1C(C)C	>57	i
C1CCN(CC[C@@H]2CCCCN2)CC1	·	i
O=c1c(-c2ccc(F)cc2)nc2cnc(N3CCNCC3)nc2n1Cc1cccs1	·	i
Cc1cccc2c(=O)cc(C)n(CC(=O)N3CCOCC3)c12	>57	i
O=C(O)CCCC(=O)Nc1ccc(Br)cc1C(=O)O	>57	i
CCc1c(O)nc(SCC(=O)N2CCOCC2)n(-c2ccccc2)c1=O	>57	i
CCOc1ccccc1NC(=O)CSc1nccn1-c1ccccc1	>57	i
COC(=O)c1[nH]c2cc(OC)ccc2c1N	·	i
O=C1CSC(c2cccc(F)c2)N1c1ccccc1F (configuration not stated)	>57	i
COc1cccc(OC)c1C(=O)Nc1nc2ccc(S(C)(=O)=O)cc2s1	>26	·
Cc1cc2c3nonc3ccc2n1-c1ccccc1	·	i
O=C(C1CCN(S(=O)(=O)N2CCC3(CC2)OCCO3)CC1)N1CCC(Cc2ccccc2)CC1	>57	i
CCn1c(SC(C)C(=O)O)nc2sc3c(c2c1=O)CCC3 (configuration not stated)	>26	·
COc1cccc(C(c2nnnn2Cc2ccccc2)N2CCN(C3CCCC3)CC2)c1OC (configuration not stated)	>57	i
Oc1cccnc1CN1CCCCC1	·	i
COc1cccc(Cn2c(NCc3ccccn3)nc3c2c(=O)n(C)c(=O)n3C)c1	>26	·
Nc1ccc(S(N)(=O)=O)cc1	·	i
Clc1ccccc1C1=Nn2c(nnc2-c2ccncc2)SC1	>57	i
O=C(CCCOc1ccccc1)NCC1CCCO1 (configuration not stated)	·	i
CC1(C)CC(=O)C2=C(C1)OC(N)=C(C#N)C21CCC2(CC1)OCCO2	>57	i
CCC(C)[C@H](NC(=O)NCc1ccccc1Cl)C(=O)OC (some centres not stated)	>57	i

Bioassay records deposited in PubChem by National Center for Advancing Translational Sciences (NCATS).
